Compound activity (PubChem)
Vaccinia inh: Vaccinia orthopox stage-specific inhibition; actives 0.01% (n = 89,000); Vaccinia-infected cells, mCherry/Venus stage reporter fluorescence; active compounds read low; some inactives read as strong as hits; activity change (mCherry), % (no concentration beside the values);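 active means mCherry past -33% and 40 or more points under the early reporter, replicates agreeing; inconclusive means past -33% without that gap or agreement; tested in A549 cells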;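 further: scaled between vehicle wells and reference inhibitor wells; 23 nL library stock went into each well; one replicate is shown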
Vaccinia inh Venus: recorded beside Vaccinia inh, whose call it bears; activity change (Venus), %; measured here: Venus reporter, other viral stage;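 negative = less Venus signal; first of two replicates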
Active calls of the source: *; u = inconclusive; x = not tested or not shown.

Results follow in this order: Vaccinia inh, Vaccinia inh Venus
C[C@@H]1CCCCO[C@H](CN(C)CC2CC2)[C@H](C)CN([C@@H](C)CO)C(=O)c2cc(NS(=O)(=O)c3ccccc3)ccc2O1
 : 1.3, -11.1
C[C@H]1CN([C@@H](C)CO)C(=O)c2cc(NC(=O)CCN3CCOCC3)ccc2O[C@@H]1CN(C)S(=O)(=O)c1ccccc1
 : -11.3, -2.1
C[C@@H]1CN([C@@H](C)CO)C(=O)c2c(c3ccccc3n2C)-c2ccccc2CO[C@@H]1CN(C)C(=O)[C@@H]1CCCN1C
 : -22.4, -17.1
COC(=O)C[C@H]1CC[C@@H]2[C@H](COC[C@@H](O)CN2CCC(F)(F)F)O1
 : 1.1, 15.3
C[C@H]1CN([C@@H](C)CO)C(=O)c2cccc(N(C)C)c2O[C@@H]1CN(C)S(=O)(=O)c1cn(C)cn1
 : 8.2, 1.5
CCN(C[C@H]1N[C@@H](CO)[C@H]1c1ccc(C2=CCCC2)cc1)C(=O)c1ccccc1
 : -29.4, -18.1
CC(C)NC(=O)Nc1ccc2c(c1)C(=O)N([C@H](C)CO)C[C@@H](C)[C@H](CN(C)C)O2
 : 26.7, 15.6
COc1ccc(S(=O)(=O)N[C@@H]2CC[C@@H](CCNC(=O)Cc3ccccn3)O[C@H]2CO)cc1
 : 1.6, 2.5
COCCNC(=O)C[C@@H]1C[C@H]2c3cc(NC(=O)Cc4ccncc4)ccc3O[C@H]2[C@@H](CO)O1
 : 9.5, 12.6
C[C@@H]1CN([C@@H](C)CO)S(=O)(=O)c2ccc(C3=CCCC3)cc2O[C@@H]1CN(C)C(=O)C1CCOCC1
 : -4.4, 7.0
Cc1ccc(S(=O)(=O)N(C)C[C@H]2OCCCC[C@H](C)Oc3ccc(NC(=O)Nc4c(C)noc4C)cc3C(=O)N([C@@H](C)CO)C[C@@H]2C)cc1
 : 12.0, -0.3
Cc1noc(C)c1NC(=O)N(C)C[C@@H]1Oc2c(NS(=O)(=O)c3ccc(F)cc3)cccc2C(=O)N([C@@H](C)CO)C[C@@H]1C
 : 5.5, 2.0
CCCC#Cc1ccc([C@@H]2[C@H]3CN(Cc4cccnc4)CCCCN3[C@H]2CO)cc1
 : -31.4, -34.0
C[C@@H]1CN([C@H](C)CO)C(=O)c2cccc(NS(=O)(=O)c3ccccc3)c2O[C@H]1CN(C)C(=O)Nc1ccccc1
 : 14.6, 12.1
CO[C@H]1CN(C)C(=O)c2cc(NC(=O)Nc3ccccc3F)ccc2OC[C@H](C)N(C(C)=O)C[C@H]1C
 : 5.3, 6.0
Cc1cccc(S(=O)(=O)N(C)C[C@H]2OCc3ccccc3-c3ccccc3C(=O)N([C@@H](C)CO)C[C@@H]2C)c1
 : 37.3, 30.9
C[C@@H]1CCCCO[C@H](CN(C)S(=O)(=O)c2ccc(Cl)cc2)[C@H](C)CN([C@@H](C)CO)C(=O)c2cc(NS(=O)(=O)c3ccccc3)ccc2O1
 : u, x
CN1c2ccc(-c3ccc(C#N)cc3)cc2[C@@H]2[C@@H](CCN2C(=O)CC2CC2)[C@H]1CO
 : -2.3, -9.0
COc1ccc(-c2ccc([C@H]3[C@@H](CO)N4CCCCN(C(=O)c5ccc(F)cc5)C[C@@H]34)cc2)cc1
 : u, x
Cc1ccccc1-c1ccccc1[C@@H]1[C@H](C#N)N(C(=O)c2cccc(F)c2)[C@H]1CO
 : 1.5, -5.6
C[C@@H]1CN([C@H](C)CO)C(=O)c2cccc(NS(=O)(=O)c3ccccc3)c2O[C@@H]1CN(C)Cc1ccc(C(F)(F)F)cc1
 : -19.6, -27.3
Cc1ccc(S(=O)(=O)Nc2ccc3c(c2)C(=O)N([C@@H](C)CO)C[C@@H](C)[C@H](CN(C)Cc2ccc4c(c2)OCO4)OCCCC[C@H](C)O3)cc1
 : u, x
CO[C@H]1CN(C)C(=O)c2ccc(NC(C)=O)cc2OC[C@@H](C)N(C(=O)Cc2cccnc2)C[C@H]1C
 : 17.7, 7.0
O=C(Nc1ccccc1)N1C[C@@H]2[C@H](c3ccccc31)[C@@H](CO)N2C(=O)c1cccnc1
 : 8.6, 5.3
O=C(Cc1ccccn1)NCC[C@H]1CC[C@H](NC(=O)Nc2ccccc2)[C@@H](CO)O1
 : 1.0, 2.0
C[C@H](CO)N1C[C@H](C)[C@H](CN(C)C(=O)c2ccncc2)Oc2cc(-c3cccc(C#N)c3)ccc2S1(=O)=O
 : 15.9, 4.9
C[C@@H]1CN([C@@H](C)CO)C(=O)Cc2cc(NC(=O)Nc3cccc4ccccc34)ccc2O[C@H]1CN(C)C(=O)Nc1ccccc1
 : 4.3, 5.5
CN(C)C(=O)[C@H]1[C@H](CO)[C@H]2Cn3c(ccc(C4=CCCC4)c3=O)[C@@H]1N2CC1CC1
 : 13.8, 7.0
C[C@@H]1CN([C@H](C)CO)C(=O)CCCn2nncc2CO[C@H]1CN(C)Cc1cccc2c1OCCCO2
 : 12.4, 8.7
C[C@@H]1CN([C@@H](C)CO)C(=O)Cc2cc(NS(=O)(=O)c3ccc(Cl)cc3)ccc2O[C@@H]1CN(C)C(=O)Nc1cccc2ccccc12
 : 18.9, 11.5
Cc1cccc(S(=O)(=O)N2C[C@H](O)COC[C@@H]3O[C@H](CC(=O)NCCCN4CCOCC4)CC[C@H]32)c1
 : 9.3, 4.3
C[C@@H]1CCCCO[C@H](CN(C)S(=O)(=O)c2ccc(F)cc2)[C@H](C)CN([C@H](C)CO)C(=O)c2cc(NC(=O)Nc3cccc4ccccc34)ccc2O1
 : 12.9, 11.3
C[C@@H]1CCCCO[C@H](CN(C)C(=O)Nc2cccc3ccccc23)[C@@H](C)CN([C@H](C)CO)C(=O)c2cc(NS(=O)(=O)c3cccs3)ccc2O1
 : 11.1, 4.5
Cc1noc(C)c1NC(=O)N(C)C[C@H]1Oc2ccc(NC(=O)NC3CCCCC3)cc2C(=O)N([C@H](C)CO)C[C@@H]1C
 : 9.6, 0.2
COc1ccc(S(=O)(=O)N(C)C[C@H]2Oc3ccc(NC(=O)CCCN(C)C)cc3CC(=O)N([C@H](C)CO)C[C@H]2C)cc1
 : 3.9, -0.9
C[C@@H]1CN([C@@H](C)CO)C(=O)c2cc(NS(=O)(=O)c3ccc(Cl)cc3)ccc2O[C@H]1CN(C)S(=O)(=O)c1ccc(Cl)cc1
 : -8.9, -7.5
O=S(=O)(N[C@@H]1CCCN(Cc2cccc(OCCO)c2)C1)c1cc(Cl)ccc1Cl
 : 10.2, 4.1
COc1ccc(S(=O)(=O)N2CC[C@@H]3[C@@H](CO)Nc4ccc(C#Cc5ccccc5OC)cc4[C@@H]32)cc1
 : -3.1, -8.6
O=C(CN1CCOCC1)N1CCCCN2[C@H](CO)[C@H](c3ccc(-c4ccccc4)cc3)[C@H]2C1
 : -0.1, -2.3
CO[C@H]1CN(C)C(=O)c2ccc(NC(C)=O)cc2OC[C@H](C)N(C(=O)C2CCCCC2)C[C@@H]1C
 : -6.3, -1.2
Cc1noc(C)c1NC(=O)Nc1ccc2c(c1)C(=O)N([C@H](C)CO)C[C@@H](C)[C@@H](CN(C)Cc1ccccc1)OCCCC[C@@H](C)O2
 : -3.8, -3.5
O=C(Cc1ccncc1)N[C@H]1CC[C@@H](CCn2cc(-c3ccccc3F)nn2)O[C@H]1CO
 : -5.1, -8.3
CNC[C@H]1OCCCC[C@H](C)Oc2ccc(NC(=O)Nc3ccc(OC)cc3)cc2C(=O)N([C@@H](C)CO)C[C@@H]1C
 : 1.9, 11.9
COc1cccc(-c2cnc3c(c2)C(=O)N([C@@H](C)CO)C[C@@H](C)[C@H](CN(C)Cc2ccccc2)O3)c1
 : -30.2, -22.1
CCC(=O)N1[C@@H]2c3ccc(C4=CCCCC4)c(=O)n3C[C@@H]2[C@@H](CO)[C@@H]1C(=O)Nc1nccs1
 : 2.3, 4.4
Cc1ccc(S(=O)(=O)Nc2ccc3c(c2)C(=O)N([C@H](C)CO)C[C@H](C)[C@@H](CN(C)C(=O)CCCN(C)C)OCCCC[C@@H](C)O3)cc1
 : 15.1, -3.2
C[C@H](CO)N1C[C@H](C)[C@@H](CN(C)C(=O)Nc2ccc(C(F)(F)F)cc2)Oc2ncc(/C=C/c3ccccc3)cc2C1=O
 : u, x
C[C@H](O)C#Cc1cnc2c(c1)C(=O)N([C@H](C)CO)C[C@@H](C)[C@@H](CN(C)C(=O)Nc1ccc(C(F)(F)F)cc1)O2
 : 0.0, -2.8
COc1cccc(CN2CC3(C2)CN(C(=O)Nc2ccc(F)cc2)[C@H](CO)c2c3c3ccc(OC)cc3n2C)c1
 : -29.7, -28.3
CCCNC(=O)C[C@@H]1CC[C@H]2[C@@H](COC[C@@H](O)CN2Cc2ccncc2)O1
 : 7.2, 8.9
CC(=O)N(C)C[C@H]1Oc2cc(-c3cccc(C#N)c3)ccc2S(=O)(=O)N([C@@H](C)CO)C[C@H]1C
 : 14.4, 7.5
Cc1ccc(S(=O)(=O)Nc2cccc3c2O[C@@H](CN(C)C(=O)Nc2c(C)noc2C)[C@H](C)CN([C@H](C)CO)C3=O)cc1
 : 7.3, 6.8
C[C@@H]1CN([C@@H](C)CO)C(=O)c2cccc(NC(=O)C3CCOCC3)c2O[C@@H]1CN(C)C(=O)Nc1ccc2c(c1)OCO2
 : 1.7, 3.0
Cc1ccccc1-c1ccc([C@H]2[C@@H](CO)N3C(=O)CN(C(=O)c4ccncc4)C[C@@H]23)cc1
 : 17.1, 14.2
C[C@@H]1CN([C@@H](C)CO)C(=O)c2cc(NS(=O)(=O)c3cn(C)cn3)ccc2O[C@H]1CN(C)C(=O)NC1CCCCC1
 : 16.7, 9.4
Cc1noc(C)c1NC(=O)Nc1ccc2c(c1)C(=O)N([C@H](C)CO)C[C@H](C)[C@H](CN(C)Cc1ccc(-c3ccccc3)cc1)O2
 : -22.1, -16.2
O=C(NCC[C@H]1CC[C@H](NC(=O)C2CCCCC2)[C@H](CO)O1)c1ccc(F)cc1
 : 5.2, 12.3
CO[C@H]1CN(C)C(=O)c2cc(NS(=O)(=O)c3cccc(Cl)c3)ccc2OC[C@H](C)NC[C@@H]1C
 : 2.6, 1.8
C[C@H]1CN([C@@H](C)CO)S(=O)(=O)c2ccc(C#Cc3ccc(F)cc3)cc2O[C@@H]1CN(C)C(=O)CN(C)C
 : u, x
COC(=O)C[C@H]1CC[C@@H]2[C@H](COc3ccc(NC(=O)C4CCOCC4)cc3C(=O)N2C)O1
 : 14.6, 13.6

Carrying on:
Results follow in this order: Vaccinia inh, Vaccinia inh Venus
C[C@@H]1CN([C@@H](C)CO)C(=O)c2cccc(NS(=O)(=O)c3ccc(F)cc3)c2O[C@@H]1CN(C)CC1CCCCC1
 : 11.3, -0.4
O=C(C[C@H]1C=C[C@H](NC(=O)Nc2ccc(F)cc2)[C@H](CO)O1)NCc1ccccn1
 : 0.2, -9.2
C[C@H]1CN([C@@H](C)CO)C(=O)c2cc(C3=CCCCC3)cnc2O[C@@H]1CN(C)C(=O)Nc1ccccc1
 : -15.6, -13.1
C/C=C/c1ccc([C@@H]2[C@@H](C#N)N(c3nc(CC)cs3)[C@H]2CO)cc1
 : -12.3, -14.6
COc1ccc(C#Cc2ccc([C@H]3[C@H](CO)N4CCCCN(Cc5ccncc5)C[C@@H]34)cc2)cc1
 : -17.3, -3.5
C[C@@H]1CN([C@@H](C)CO)C(=O)c2cc(NC(=O)Nc3ccccc3)ccc2O[C@H]1CN(C)Cc1ccc(-c2ccccc2)cc1
 : -20.7, -14.5
C[C@H]1CN([C@@H](C)CO)C(=O)Cc2cc(NC(=O)C3CCCCC3)ccc2O[C@H]1CN(C)C(=O)NC1CCCCC1
 : 22.4, 11.7
O=C(Nc1ccccc1)C1=C[C@@H](c2ccc3c(c2)Cc2ccccc2-3)C[C@@H](OCc2ccc(CO)cc2)O1
 : 19.2, 11.5
COc1ccc(S(=O)(=O)N(C)C[C@@H]2OCCCC[C@@H](C)Oc3ccc(NS(=O)(=O)c4ccc(C)cc4)cc3C(=O)N([C@@H](C)CO)C[C@H]2C)cc1
 : u, x
C[C@H](CO)N1C[C@H](C)[C@@H](CN(C)S(C)(=O)=O)Oc2c(NC(=O)Nc3ccc(F)cc3)cccc2C1=O
 : 0.0, -6.5
CN1C(=O)c2cc(NC(=O)c3cnccn3)ccc2OC[C@H]2O[C@@H](CC(=O)N[C@H]3CCN(Cc4ccccc4)C3)CC[C@@H]21
 : 11.7, -4.6
COCC(=O)Nc1ccc2c(c1)C(=O)N(C)[C@@H]1CC[C@@H](CC(=O)NCC3CC3)O[C@H]1CO2
 : 17.5, 13.7
CCC(=O)N1[C@H](CO)[C@H](c2ccc(-c3ccc(F)cc3)cc2)[C@@H]1CN(C)C(C)=O
 : 9.4, -4.3
COc1ccc2c3c([nH]c2c1)[C@@H](CO)N(C(=O)c1ccccn1)CC31CCN(C(=O)C2CCCC2)CC1
 : 0.4, -4.1
COc1ccc(S(=O)(=O)N(C)C[C@@H]2OCCCC[C@@H](C)Oc3ccc(NC(=O)c4ccccc4)cc3C(=O)N([C@H](C)CO)C[C@@H]2C)cc1
 : -12.9, -22.5

An excerpt. The share of hits here may be higher or lower than overall.
